Source: PubChem BioAssay
N370S GC mod – qHTS Assay for Inhibitors and Activators of N370S glucocerebrosidase as a Potential Chaperone Treatment of Gaucher Disease; Lysosomal acid glucosylceramidase (Homo sapiens), P04062; hit rate 0.092% among 330,000; AID 2101, 2009; Potency, µM (highest dose often 59.4 µM), for the others: at the highest dose activity change, negative = inhibition, usual class: inhibitors; N370S GC spleen homogenate, 4MU-glucoside fluorescence;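 further: 0% = full enzyme activity and -100% = no enzyme basal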
GCN5L2 inh – qHTS Assay for Inhibitors of GCN5L2. GCN5L2 HAT assay, ThioGlo1 CoA-SH fluorescence. hit rate 0.21% among 390,000. Histone acetyltransferase KAT2A (Homo sapiens), Q92830. AID 504327, 2011. Potency, µM (top dose mostly 58.9 µM), for inactives: at the highest dose activity change, negative = inhibition, usual class: inhibitors
Target sequence (Q92830 whole entry, looked up): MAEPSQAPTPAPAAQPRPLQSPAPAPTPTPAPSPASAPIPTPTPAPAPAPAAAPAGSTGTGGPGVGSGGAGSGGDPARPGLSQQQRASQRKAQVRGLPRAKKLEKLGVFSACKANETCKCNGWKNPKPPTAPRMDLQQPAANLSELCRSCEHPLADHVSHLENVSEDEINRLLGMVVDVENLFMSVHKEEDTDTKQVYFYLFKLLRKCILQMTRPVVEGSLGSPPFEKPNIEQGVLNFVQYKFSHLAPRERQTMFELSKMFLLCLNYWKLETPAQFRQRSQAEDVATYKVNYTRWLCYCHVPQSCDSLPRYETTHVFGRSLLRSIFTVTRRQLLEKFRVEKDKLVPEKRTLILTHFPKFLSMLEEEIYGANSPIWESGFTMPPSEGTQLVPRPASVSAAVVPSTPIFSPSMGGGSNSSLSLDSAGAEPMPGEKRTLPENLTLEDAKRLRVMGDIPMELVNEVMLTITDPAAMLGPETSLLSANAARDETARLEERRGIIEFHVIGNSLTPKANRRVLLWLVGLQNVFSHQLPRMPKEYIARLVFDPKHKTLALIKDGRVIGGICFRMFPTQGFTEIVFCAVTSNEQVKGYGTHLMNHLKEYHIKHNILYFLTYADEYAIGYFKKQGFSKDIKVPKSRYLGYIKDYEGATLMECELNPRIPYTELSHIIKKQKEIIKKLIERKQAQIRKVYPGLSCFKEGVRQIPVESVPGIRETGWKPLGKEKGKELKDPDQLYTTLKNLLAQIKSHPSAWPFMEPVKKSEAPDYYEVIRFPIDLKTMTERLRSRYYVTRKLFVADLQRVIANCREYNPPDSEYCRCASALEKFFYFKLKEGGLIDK
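ThioGlo1-coupled HAT assay: 20nM GCN5L2, 70uM acetyl-CoA, 75uM H3(1-25) peptide, pH 7.5. Fluorescence read at 340/540nm at start and after 20 min at room temperature.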
* marks the source's active call; other numbers are inactive results; ? = inconclusive; . = not tested or not shown; & = joins results of further samples; [ ] = dose if it differs, or a comment. The call rests on the fitted dose curve; in most records, active means well fitted curve in the direction sought with a large enough effect; inconclusive means small, poorly fitted or top-dose-only effect, or another doubt; inactive means no such curve, though single readings can be large; an effect the other way counts as inactive or inconclusive. Unless noted, on the % scale 0 is the no-effect control and ±100 the full control effect; potency means the concentration at half of the fitted maximal effect. The list is partial, and most or all hits are left out here.

The first 15 entries as a preview:
SMILES | N370S GC mod | GCN5L2 inh
Cc1cc(=O)oc2c3c4c(cc12)OCCN4CCC3 | 4.0% | ?
CN(C)S(=O)(=O)c1ccc(N2CCCC2)c(C(=O)N2CCN(S(=O)(=O)c3ccccc3F)CC2)c1 | -1.4% | -17.6%
Cc1nnc(SCc2ccc3c(c2)OCO3)s1 | 12.9% | -5.0%
CC1CC(=O)N(c2ccc(NCc3ccccc3Cl)c([N+](=O)[O-])c2)C1=O (stereo not drawn) | -0.4% | -1.6%
COC(=O)CCC(=O)NC(=S)Nc1cc(Cl)ccc1Cl | 4.6% | 1.2%
COc1cc(/C=N/O)ccc1Oc1ccc([N+](=O)[O-])cc1[N+](=O)[O-] | 6.8% | ?
O=C1CN(S(=O)(=O)c2cccc(Br)c2)CCN1 | . | -4.2%
COc1ccccc1C(=O)Nc1ccc2c(c1)OCCO2 | 3.0% | -2.3%
COc1cc(OC)cc(C(=O)NNC(=O)CCNS(=O)(=O)c2ccc(Br)cc2)c1 | . | -2.7%
CC1CCCN(S(=O)(=O)c2ccc([N+](=O)[O-])cc2)C1 (stereo not drawn) | -2.2% | 11.3%
COc1ccc(NC(=S)NCc2ccc3c(c2)cc(C)n3C)cc1 | 5.9% | -0.5%
COc1ccccc1-c1cc(C(=O)N2CCN(S(=O)(=O)c3ccc(C)cc3)CC2)[nH]n1 | -13.9% | -10.5%
Cc1cccc(C(=O)NCCCNC(=O)c2cccnc2)c1 | -5.3% | -4.7%
COc1ccccc1NC(=O)NNC(=O)c1ccc2ccccc2c1O | ? | -8.0%
Cc1ccc(OCC(=O)c2cc(C)n(C)c2C)c([N+](=O)[O-])n1 | 10.7% | -3.0%

This part in full (from the top)
SMILES | N370S GC mod | GCN5L2 inh
Cc1cc(=O)oc2c3c4c(cc12)OCCN4CCC3 | 4.0% | ?
CN(C)S(=O)(=O)c1ccc(N2CCCC2)c(C(=O)N2CCN(S(=O)(=O)c3ccccc3F)CC2)c1 | -1.4% | -17.6%
Cc1nnc(SCc2ccc3c(c2)OCO3)s1 | 12.9% | -5.0%
CC1CC(=O)N(c2ccc(NCc3ccccc3Cl)c([N+](=O)[O-])c2)C1=O (stereo not drawn) | -0.4% | -1.6%
COC(=O)CCC(=O)NC(=S)Nc1cc(Cl)ccc1Cl | 4.6% | 1.2%
COc1cc(/C=N/O)ccc1Oc1ccc([N+](=O)[O-])cc1[N+](=O)[O-] | 6.8% | ?
O=C1CN(S(=O)(=O)c2cccc(Br)c2)CCN1 | . | -4.2%
COc1ccccc1C(=O)Nc1ccc2c(c1)OCCO2 | 3.0% | -2.3%
COc1cc(OC)cc(C(=O)NNC(=O)CCNS(=O)(=O)c2ccc(Br)cc2)c1 | . | -2.7%
CC1CCCN(S(=O)(=O)c2ccc([N+](=O)[O-])cc2)C1 (stereo not drawn) | -2.2% | 11.3%
COc1ccc(NC(=S)NCc2ccc3c(c2)cc(C)n3C)cc1 | 5.9% | -0.5%
COc1ccccc1-c1cc(C(=O)N2CCN(S(=O)(=O)c3ccc(C)cc3)CC2)[nH]n1 | -13.9% | -10.5%
Cc1cccc(C(=O)NCCCNC(=O)c2cccnc2)c1 | -5.3% | -4.7%
COc1ccccc1NC(=O)NNC(=O)c1ccc2ccccc2c1O | ? | -8.0%
Cc1ccc(OCC(=O)c2cc(C)n(C)c2C)c([N+](=O)[O-])n1 | 10.7% | -3.0%
CC1=C(C(=O)N2CCOCC2)C(c2ccccc2F)C2=C(CCCC2=O)N1 (stereo not drawn) | 10.1% | -16.5%
COc1ccc(CN2CCN(Cc3cccn3-c3ncccn3)CC2CCO)c(C)c1C (stereo not drawn) | -15.0% | 1.5%
O=C(NCC1OCCc2ccccc21)c1ccc(NC(=O)c2ccc(Cl)cc2)cc1 (stereo not drawn) | -6.7% | 2.5%
C=CCn1c(NCc2ccc3c(c2)OCO3)nc2ccccc21 | -9.0% | -1.8%
CCOc1ccccc1CNCc1c(C(=O)O)n(Cc2ccc(F)cc2)c2cc(C)ccc12 | . | 0.0%
CCNS(=O)(=O)c1ccc(CCC(=O)N2CCCC2)cc1 | -16.3% | -15.7%
O=C(c1ccc(OC2CCN(Cc3ccccn3)CC2)cc1)N1CCC[C@H]1CO | 2.7% | -8.1%
Cc1cccc2c1cnn2C(=O)CCC(=O)NCC(C)c1ccccc1 (stereo not drawn) | -10.0% | -7.8%
CCOC(=O)[C@@H]1[C@H]2COc3ccc(Br)cc3[C@H]2N2C(=O)N(c3ccc(Cl)cc3)C(=O)[C@@]12C | 17.6% | -6.7%
CCC(=O)Nc1ccc2nn(-c3ccc(F)cc3)nc2c1 | ? | -2.4%
S=C(NCC1CCCO1)Nc1cccc2ccccc12 (stereo not drawn) | 9.0% | -5.2%
COc1ccccc1CC(=O)Nc1cccc(C(=O)Nc2nccs2)c1 | -6.4% | -11.3%
CCOc1ccc2nc(NC(=O)C3CCCN(S(=O)(=O)c4c(C)noc4C)C3)sc2c1 (stereo not drawn) | 15.4% | -25.9%
CC(=O)Nc1ccc(S(C)(=O)=O)c(C)c1 | -2.1% | 0.9%
COc1ccc(C(CCN)Cc2ccccc2)cc1 (stereo not drawn) | -18.0% | 9.1%
CN(C)S(=O)(=O)N1CCC(Oc2cccc(C(=O)N3CCSCC3)c2)CC1 | -1.7% | -1.1%
COc1ccc(S(=O)(=O)N2CCN(C)CC2)c2ccccc12 | -0.8% | -15.6%
O=C(c1ccc(CS(=O)(=O)Cc2ccc(Cl)cc2)o1)N1CCCC1 | 4.5% | -11.1%
O=c1c(-c2nc3ccccc3s2)cccn1Cc1ccccc1 | ? | -16.4%
CC1=C(C(=O)N2CCCC(CCC(=O)NCc3ccc(F)c(F)c3)C2)OCCO1 (stereo not drawn) | 3.0% | 11.2%
CCCCC(=O)NC(=S)Nc1nnn(CCC)n1 | 18.8% | -18.0%
CCCN(CCC)CCCNC(=O)c1cn(CC)c2ccc(S(=O)(=O)N3CCOCC3)cc2c1=O | -5.6% | 10.9%
CC1CCC(C(C)C)C2=C1C(C#N)(C#N)C(C#N)(C#N)C(c1ccccc1)N2 (stereo not drawn) | 1.5% | -5.3%
Cc1ccc([N+](=O)[O-])cc1S(=O)(=O)N1CCCN(C)CC1 | -11.1% | 13.7%
O=C(CSCc1cnn(-c2ccccc2)c1-n1cccc1)NCCN1CCOCC1 | 9.4% | 0.0%
NC(=O)c1cccnc1Nc1ccccc1F | 12.1% | -2.1%
Cc1cc(C)cc(NC(=O)N2CCc3ccccc3C2)c1 | -0.2% | ?
COc1ccc(/C=N/Nc2ccccn2)cc1O | -6.5% | -5.3%
Cc1ccc(-c2nc3ccccc3nc2Cl)cc1 | -6.5% | 2.1%
O=C(CNC(=O)C1CC1)Nc1ccc(F)c(F)c1F | . | -0.9%
Cc1cc(N2C(=O)C(O)=C(C(=O)c3ccco3)C2c2ccc(O)cc2)no1 (stereo not drawn) | -1.2% | 15.5%
CCOC(=O)c1sc(NC(=O)c2ccc(S(=O)(=O)N3CCCCC3)cc2)nc1-c1ccccc1 | -6.2% | -1.2%
CCC(=O)Nc1ccccc1C(=O)OCC(=O)Nc1ccc(S(N)(=O)=O)cc1 | -15.2% | -2.3%

Single records, as listed above.
COc1ccc(NC(=S)NCc2ccc3c(c2)cc(C)n3C)cc1 across the screens: N370S GC mod = 5.9%; GCN5L2 inh = -0.5%
CC1CCC(C(C)C)C2=C1C(C#N)(C#N)C(C#N)(C#N)C(c1ccccc1)N2 (stereo not drawn) across the screens: N370S GC mod = 1.5%; GCN5L2 inh = -5.3%

(list continues)
SMILES | N370S GC mod | GCN5L2 inh
CN=c1sc(C(=O)Nc2cccc(Cl)c2)cc(=O)n1C | 0.9% | -1.2%
Cc1ccc(-c2nc(NCc3ccco3)n(S(C)(=O)=O)n2)cc1 | 12.8% | -2.3%
CCOc1ccc(NC(=O)c2nnn(CC(=O)Nc3ccccc3OCC)c2N)cc1 | 7.4% | 2.3%
CC(=O)Nc1ccc(C(=O)NNC(=O)C2C3CCCCC32)cc1 (stereo not drawn) | 0.8% | -16.3%
COc1ccc(S(=O)(=O)c2cnc3cc(OC)c(OC)cc3c2N2CCCC(C)C2)cc1 (stereo not drawn) | . | -16.4%
CCN(CC)S(=O)(=O)c1ccc(NC(=O)c2ccc(N(C)S(C)(=O)=O)cc2)cc1 | -1.5% | -1.1%
C/C(N)=C(/C#N)C(=O)CSc1cc(C)c2ccccc2n1 | -16.1% | -1.9%
CCCc1cc(=O)n2nc(N3CCC(C(=O)Nc4c(F)c(F)c(F)c(F)c4F)CC3)sc2n1 | 18.5% | 2.0%
CCc1sc(C(=O)NC(C)C2CCCO2)cc1Br (stereo not drawn) | 3.1% | -3.9%
CCOc1ccc2[nH]c3c(N4CCN(c5ccccn5)CC4)ncnc3c2c1 | 0.1% | -15.7%
O=C1CN2C(=N1)N(Cc1ccccc1)c1ccccc12 | -7.5% | 0.7%
Cc1ccc(C(C)(C)C)c(SCC(=O)Nc2nnc(C)s2)c1 | -10.8% | 0.6%
COc1ccc(N2C(=O)C(C)C(Cc3ccc(C)cc3)C2=O)cc1 (stereo not drawn) | -0.5% | -15.0%
Cc1nc(CS(=O)(=O)c2ccccc2)cc(N2CCN(c3ccccc3F)CC2)n1 | -3.0% | -12.8%
O=C(Nc1ccc2c(c1)CCC2)c1ccc(F)cc1 | 6.9% | -5.0%
COC/C=C/C1=CC2=CC(=O)C(C)(OC(=O)c3cnc4ccccc4n3)C(=O)C2=CN1Cc1ccc(OC)cc1 (stereo not drawn) | 3.0%[12.8 µM] | 26.0%
O=C(OCCN1CCOCC1)c1ccc(O)cc1 | -0.9% | -20.0%
O=C(NCC1CCCO1)c1ccc(COc2ccccc2)cc1 (stereo not drawn) | -6.2% | -1.5%
Cc1ccc(NC(=O)OCCN2CCN(S(=O)(=O)c3ccc(C)cc3)CCC2=O)cc1 | 12.2%&24.0% | -7.6%&-6.9%
COc1ccccc1NC(=O)Cn1cnc2c(cnn2-c2ccccc2)c1=O | 1.7% | -3.7%
Cc1csc2nc(CNS(=O)(=O)c3ccc(-c4ccccc4)cc3)cn12 | 28.4% | -2.8%
COc1ccc(N2CCN(C(=O)c3cccc(Cn4cc(Cl)cn4)c3)CC2)cc1 | 7.9% | .
O=C(O)COc1ccccc1/C=N/NC(=O)c1cc(-c2ccc(F)cc2)nc2ccccc12 | 11.1% | -12.9%
COc1cccc(NC(=S)Nc2ccc(F)cc2)c1 | -8.3% | -1.1%
CCOc1ccccc1C(=O)NCC(=O)N1CCC(C)CC1 | . | 1.5%
COCc1[nH]nc2c1C(c1cccc(OC)c1)C(C#N)=C(N)O2 (stereo not drawn) | 9.6% | -2.6%
Cn1c(N)c(C(=O)COC(=O)CCCOc2ccc(Cl)cc2Cl)c(=O)n(C)c1=O | -2.4% | -8.3%
O=C1c2ccccc2C(=O)N1CCCCN(C(=O)c1ccc([N+](=O)[O-])cc1)c1ccc(Cl)cc1 | -13.5% | -8.4%
c1ccc(-c2onc3c2CCCC3)cc1 | 11.2% | -0.5%
CCN(CC)C(=O)CSc1nnc(SCc2ccc(Cl)cc2)s1 | -12.7% | 1.9%
Cc1ccc(C(=O)NCC(=O)N2CCCCCCC2)cc1 | . | 1.1%
CCOC(=O)c1c(NC(=O)CSc2ncn[nH]2)sc(C)c1C | 1.7% | -2.3%
CCN(Cc1ccccc1)C(=O)Cc1ccc(OC)c(S(=O)(=O)N2CCOCC2)c1 | -5.8% | -7.3%
Brc1ccc(CSc2nccn2-c2ccccc2)cc1 | 3.4% | -9.6%
CCC(=O)n1nc(-c2ccc(OC)cc2)nc1NCc1cccs1 | 4.8% | -12.4%
Cc1nn(-c2ccccc2)c(Cl)c1/C=N/NS(=O)(=O)c1ccc(Br)cc1 | 1.6% | -10.7%
Cc1cccc(NC2=CC(=O)OC(C)C2)c1 (stereo not drawn) | -17.6% | -4.9%
Cc1ccc(C2=NN(CCC#N)C(=O)CO2)cc1 | 4.5% | -3.6%
COc1ccc(-c2nsc(SCC(=O)NCc3ccc4c(c3)OCO4)n2)cc1 | -1.4% | -5.1%
Nc1ncnc2nc(SCCOc3ccc(Cl)cc3)[nH]c12 | -2.6% | -4.8%
Cn1c(SCC(=O)N2CCCc3ccccc32)nc2cccnc21 | -4.2% | 2.0%
COC(=O)C1CCN(C(=O)c2ccccc2Oc2ccccc2)CC1 | -10.9% | 0.3%
CCc1ccc(NC2CC(=O)N(c3ccc(OC)cc3OC)C2=O)cc1 (stereo not drawn) | -8.0% | -28.6%
O=C(N[C@@H](Cc1ccccc1)C(=O)NCCc1c[nH]c2ccccc12)c1ccco1 | -6.2% | -1.7%
O=C(c1cccc(F)c1)N1CCN(Cc2c[nH]c3ccccc23)CC1 | 4.1% | -5.6%
CCC(=O)N1N=C(c2ccc(C)o2)CC1c1ccc(N(C)C)cc1 (stereo not drawn) | 8.6% | -7.4%
Cc1ccc(S(=O)(=O)N(C)CC(=O)Nc2cccc3c2CCCC3)cc1 | -7.4% | 22.1%
COc1cc2c(cc1OC)CN(C(=O)c1ccc([N+](=O)[O-])o1)CC2 | 7.2% | -2.9%
COc1ccc(C(=O)Nc2ccc(NC(=O)C3CC3)nc2)cc1 | 1.1% | -5.6%
